H5N1 antiviral: MDCK cell protection from H5N1 avian flu | cytopathic effect, luminescence, 72 h; hits give high values; no value below 0 was filed and about half of the inactive calls have no number; reference of the scale not given here | inhibition, % at 50 µM | 96,000 tested, 0.07% active; in the data active means inhibition above about 25%
An asterisk follows results filed as active; i = inactive. Not all compounds are listed. The share of hits here may be higher or lower than overall.

SMILES	H5N1 antiviral
O=C(c1ccncc1)N(Cc1ccccc1)Cc1nc2ccccc2c(=O)[nH]1	0.5
Cc1cccn2c(=O)c3cc(C(=O)N4COCC4(C)C)n(C)c3nc12	i
COC(=O)CC1SC(=O)NC1=Nc1ccccc1 (stereo unspecified)	1.6
Cc1c(NC(=O)NCCN2C(=O)C3C4C=CC(C4)C3C2=O)c(=O)n(-c2ccccc2)n1C (stereo unspecified)	0.5
O=C(OCN1C(=O)c2ccccc2C1=O)c1ccco1	i
O=C(CCCNS(=O)(=O)c1cccs1)N1CCN(c2cccc(Cl)c2)CC1	1.1
NC(=O)Cn1c(=O)oc2ccccc21	0.5
CCCC(=O)N(c1ccc2oc(=O)sc2c1)S(=O)(=O)c1cccs1	4.2
Cn1c(C(=O)NCc2cccnc2)cc2sc(Cl)cc21	i
COc1ccccc1-c1c(C)nn2c(N3CCC4(CC3)OCCO4)cc(C)nc12	i
Cc1cc(=O)oc(C)c1C(=O)NCCCN1CCN(c2ccccc2F)CC1	0.6
CCCN1Cc2cccc(C(=O)Nc3ccc(CC)cc3)c2C1=O	0.2
Oc1ccccc1NCC(O)Cn1ccc2ccccc21 (stereo unspecified)	2.1
COC(=O)c1sccc1NC(=O)c1cc(-c2ccc(C)cc2C)nc2ccccc12	i
Cc1ccccc1NC(=O)NCCc1nc2ccccc2[nH]1	i
CCCC(=O)Nc1sc(C)c(C)c1C(=O)Nc1cccc(C)c1	0.1
COc1ccc(NC2CC(=O)N(c3ccccc3)C2=O)cc1 (stereo unspecified)	i
COc1cc2c(C(=O)N3CCN(Cc4ccc5c(c4)OCO5)CC3)cn(C)c(=O)c2cc1OC	1.5
CCn1c2ccccc2c2nnc(SCCCn3c(=O)[nH]c4ccccc43)nc21	i
O=C(CCc1n[nH]c(=O)[nH]c1=O)N1CCCCC1	i
COc1ccc(CNC(=O)c2cnc3scc(C)n3c2=O)cc1	4.6
Cc1cc(NC(=O)CSc2nc(-c3ccc(F)cc3)cs2)no1	i
O=C(CN1C(=O)c2ccccc2C1=O)NCC1CCCO1 (stereo unspecified)	i
CCN1CCn2c3c(c4cc(Cl)ccc42)CCCC31 (stereo unspecified)	0.2
CCOC(=O)N1CCN(c2nc(-c3ccc(Cl)cc3)cs2)CC1	i
Nc1cc(Cl)ccc1C(=O)OCC(=O)NC1CCS(=O)(=O)C1 (stereo unspecified)	i
CN(C)c1ccnc(Oc2ccc(C(C)(C)C)cc2)c1C#N	i
CCOC(=O)c1cccnc1SCC(=O)N(CC)c1cccc(C)c1	i
CC(C)(C)NC(=O)CSc1nncn1NCc1ccccc1	i
O=C(O)C1C2C=CC(C2)C1C(=O)Nc1cccc(C(=O)N2CCCCC2)c1 (stereo unspecified)	i
CCOc1ccc(C2c3cc(OC)c(OC)cc3CC(=O)N2c2ccccc2)cc1 (stereo unspecified)	i
Cc1cc(C)nc(SCC(=O)c2c(N)n(C)c(=O)n(C)c2=O)n1	i
COc1ccc(/C(O)=C/C(=O)C(=O)Nc2c(C)n(C)n(-c3ccccc3)c2=O)cc1	i
CC1=Nc2ccccc2/C1=C\c1nc(-c2ccc(C(F)(F)F)cc2)oc1O	i
CCOC(=O)COc1ccc2nsnc2c1Cl	i
CCOc1cc(S(=O)(=O)Nc2cc(C)cc(C)c2)ccc1Cl	0.5

Given in CSV form: part of the list above.
smiles,H5N1 antiviral
COC(=O)c1sccc1NC(=O)c1cc(-c2ccc(C)cc2C)nc2ccccc12,i
Cc1ccccc1NC(=O)NCCc1nc2ccccc2[nH]1,i

The list continues.
SMILES	H5N1 antiviral
COC(=O)c1cc2c(C)nn(-c3ccccc3)c2s1	i
CCc1ccc(CN/C=C/C(=O)c2ccc(Br)cc2)cc1	i
Cc1ccc(CSCCNC(=O)c2ccc(N(C)S(=O)(=O)c3ccccc3)cc2)cc1	1.2
O=C(O)c1cccc(Cn2cccn2)c1	0.4
Cc1ccc(CN(c2ccc(C(=O)Nc3cccnc3)cc2)S(C)(=O)=O)cc1	i
COC(=O)c1ccccc1NC(=O)CCNC(=O)Cn1cnc2ccccc2c1=O	i
O=C(CCCCCn1c(=S)[nH]c2cc3c(cc2c1=O)OCO3)N1CCN(Cc2ccccc2)CC1	i
CCC(C)[C@H](NC(=O)Nc1ccc(C(C)=O)cc1)C(=O)OC (stereo partly specified)	0.1
Cc1ccc(-n2c(C)c([N+](=O)[O-])c3ccc(O)c(CN(C)C)c32)cc1	1.2
Nc1ccc(C(=O)Nc2nc3ccccc3s2)cc1	i
CCCC(C)n1[nH]c(=O)c2c1NC(=O)CSC2c1ccc(OC)c(OC)c1 (stereo unspecified)	i
Cc1ccccc1OCc1nc(-c2ccc(NC(=O)c3ccco3)cc2)no1	0.6
O=C(CNC1CCCCCC1)Nc1ccc(S(=O)(=O)NC2CC2)cc1	0.3
O=C(COC(=O)c1ccccc1OCc1ccc(Cl)cc1)NC1CC1	2.1
[O-][n+]1c2c(c3c4non(O)c4ccc31)CCCC2	i
CCCCCc1ccc(-c2ccc(=O)[nH]n2)cc1	0.0
Cc1cccc(N(CC(=O)NCCC2=CCCCC2)S(C)(=O)=O)c1C	0.3
Fc1cccc(Cl)c1Cn1nnc2c(N3CCC4(CC3)OCCO4)ncnc21	i
CCN(CC)S(=O)(=O)c1ccc(NC2CCCc3ccccc32)nc1 (stereo unspecified)	i
COC(=O)c1ccc(C(=O)Nc2cc(Cl)ccc2Cl)cc1NC(=O)c1ccc(N(C)C)cc1	i
COC(=O)c1sccc1NC(=O)Cn1cnc2c1c(=O)n(C)c(=O)n2C	4.8
COCCN(Cc1cc2cc(C)c(C)cc2nc1Cl)C(=O)Nc1ccccc1	0.6
O=C(O)CCC1(C(=O)O)OCCc2ccccc21 (stereo unspecified)	0.5
Cn1c(Cn2c(=O)sc3ccccc32)nnc1SCC(=O)N1CCc2ccccc21	i

3 compounds already listed, ordered by formula weight, ascending:
SMILES	H5N1 antiviral
O=C(O)CCC1(C(=O)O)OCCc2ccccc21 (stereo unspecified)	0.5
O=C(COC(=O)c1ccccc1OCc1ccc(Cl)cc1)NC1CC1	2.1
COCCN(Cc1cc2cc(C)c(C)cc2nc1Cl)C(=O)Nc1ccccc1	0.6

Additional structures
SMILES	H5N1 antiviral
COc1ccc(-c2cc(C(=O)Nc3ccccc3SC)no2)cc1OC	i
Cc1ccc2ncc([N+](=O)[O-])n2c1	0.7
O=C(Nc1ccccc1)N(CCN1CCOCC1)Cc1cccc(Cl)c1	i
O=C(C1CCN(S(=O)(=O)Cc2ccccc2)CC1)N1CCN(c2ncccn2)CC1	i
CCCOc1ccc(C2c3c(oc4ccccc4c3=O)C(=O)N2CCN(CC)CC)cc1OC (stereo unspecified)	i
Cc1c(NS(=O)(=O)c2cccc(C(=O)NCc3ccc(Cl)cc3)c2)c(=O)n(-c2ccccc2)n1C	0.7
Cc1ccc(-c2noc(C3CCN(S(C)(=O)=O)CC3)n2)o1	i
CN1C(=S)SC(N(O)C=C2C=CC(=O)C=C2)C1(C)C (stereo unspecified)	1.1
Cc1nn(CC(=O)NCC2CCCO2)c(=O)c2ccccc12 (stereo unspecified)	i
O=C(CN1C(=O)C2(OCCO2)c2ccccc21)c1ccc(F)cc1	i
Cc1occc1-c1nc(-c2ccncc2)no1	2.1
Cc1cccc(-c2noc(CCC(=O)NCc3ccccc3)n2)c1	i
Cc1cc(C)c(C)c(OCC(=O)NCCN(C)C)c1	i
CC1CN(C(=O)c2nn(C)cc2[N+](=O)[O-])CC(C)O1 (stereo unspecified)	i
COc1ccc(Cn2nnnc2CN(Cc2cc3ccc(C)cc3[nH]c2=O)C2CCCC2)cc1	0.5
O=C(NC1CCCCC1)C(c1cccs1)N(Cc1cccs1)C(=O)c1ccco1 (stereo unspecified)	2.3
O=c1cc(N2CCCCC2)c(-c2ccccc2)nn1Cc1ccccc1Cl	i
Cc1cc(C(=O)Nc2ccc(N3CCOCC3)cc2)c2ccccc2n1	0.2
Nc1nc2c3ccccc3nc(Cc3ccccc3)n2n1	1.4
CCCN1CCN(C(=O)Cn2ncc3ccccc32)CC1	0.1
CN1C(=O)N(C)C2(c3ccccc3)Nn3c(s/c(=C/c4ccccc4)c3=O)=NC12c1ccccc1 (stereo unspecified)	0.3
Cc1ccccc1C(=O)NCCN=C1NS(=O)(=O)c2ccccc21	1.2
CCS(=O)(=O)c1ccc(-c2csc(-c3ccccc3Cl)n2)c(Cl)c1Cl	i
CSc1nc(Cl)c(C#N)c(-c2ccc(C)cc2)n1	i
CC(=O)Oc1cc(OC(C)=O)c2c(C)cc(=O)oc2c1	i
CCOC(=O)c1[nH]c(C)c(/C(O)=C2\C(=O)C(=O)N(CCCN(C)C)C2c2cccnc2)c1C (stereo unspecified)	1.3
Cc1ccc(C2N(C)c3ccccc3-c3nc4ccccc4n32)o1 (stereo unspecified)	i
CCC(C)C(=O)Nc1c2c(nc3c1CCC3)CCCC2 (stereo unspecified)	i
c1coc(-c2nn3c(Cn4nnc5ccccc54)nnc3s2)c1	3.9
COc1ccc(CC(=O)Nc2ccc(-c3noc(-c4cccc(OC)c4)n3)cc2)cc1	i
CCOC(=O)N1CCN(C(=O)Cc2ccc(-n3c(=O)[nH]c4ccccc4c3=O)cc2)CC1	1.0
CS(=O)(=O)N1CCN(c2ccccc2NC(=O)c2ccc(-c3ccc(Br)cc3)o2)CC1	i
COc1ccc2nc(SCc3nc(N)nc(Nc4ccccc4)n3)[nH]c2c1	i
COC(=O)c1ccccc1NC(=S)NC(=O)c1cccc2ccccc12	i
O=C(COC(=O)c1ccc[nH]c1=O)c1ccc(Cl)s1	i
CC1=CC(=O)C2=C(C)CC(O)C3C(C)C(=O)OC3C12 (stereo unspecified)	0.8
COCCNC(=O)C(c1ccc(C)o1)N(Cc1ccc(OC)cc1)C(=O)Cn1nnc2ccccc21 (stereo unspecified)	i
CC(=O)NC1=NN(C(C)=O)C2(S1)C(=O)N(C(C)C)c1ccc(C)cc12 (stereo unspecified)	i
COC(=O)c1ccc(NC2=CC(=O)CC(C)(C)C2)cc1	0.4
COC(=O)CN(c1ccc(OC)cc1)S(=O)(=O)c1c(C)noc1C	i
O=C1CSC2(CCCCC2)N1CCO	0.6
COc1cccc(NC(=O)CSc2nnc(-c3ccoc3C)n2-c2ccccc2)c1	i
COC(=O)c1cccc(Oc2nc3c(c(=O)n(C)c(=O)n3C)n2C(C)C)c1	3.9
COc1ccc(-c2cc(C(=O)N3CCOCC3)no2)cc1OC	i
CCOC(=O)NC(=O)CSc1nnnn1-c1ccc(C)cc1	i
CCn1c(COc2cccc3cccnc23)nnc1SCC(=O)O	1.0
CC1CCN(c2ccccc2NC(=S)NC(=O)c2ccc(-c3cccc([N+](=O)[O-])c3)o2)CC1	i
CCC(C)(C)C(=O)Nc1ccc(OC)cc1[N+](=O)[O-]	0.9
CN1CCN(S(=O)(=O)c2ccc(NC(=O)Cc3cccs3)cc2)CC1	i
CC(C)OCCCNC(=O)c1cc2c(=O)n(C)c3ccccc3c2n1C	0.5
CCC(c1nnc(SCC(=O)Nc2ccc(C(=O)Nc3ccccc3OC)cc2)o1)N(C)C (stereo unspecified)	i
O=S1(=O)C=C(SCc2cccc(Cl)c2)Nc2ccccc21	0.3
CCn1c(SCc2nc(-c3ccccc3)no2)nnc1-c1cccs1	0.1
COCCn1c(=O)c2c(nc3n2CCN3c2ccc(C)cc2)n(C)c1=O	i
O=C(COC(=O)c1n[nH]c2ccccc12)NC(=O)NC1CCCC1	0.3
COc1ccc(C(=O)c2cc3ccc(O)cc3oc2=O)cc1	0.6
CC1CCN(C(=O)C(NS(=O)(=O)c2cccc3nsnc23)c2ccccc2)CC1 (stereo unspecified)	2.0
Cc1ccc(S(=O)(=O)N2CCN(S(=O)(=O)c3ccc4c(c3)OCCO4)CC2)cc1	i
NC(=O)CCNC(=O)c1ccc(Cl)cc1	i
O=C(Nc1cnn(Cc2ccc(F)cc2)c1)c1cnccn1	i

Quoted at random: 5 records from the list, in no set order.
SMILES	H5N1 antiviral
O=C(COC(=O)c1n[nH]c2ccccc12)NC(=O)NC1CCCC1	0.3
CCn1c(SCc2nc(-c3ccccc3)no2)nnc1-c1cccs1	0.1
Cc1ccc(S(=O)(=O)N2CCN(S(=O)(=O)c3ccc4c(c3)OCCO4)CC2)cc1	i
CN1CCN(S(=O)(=O)c2ccc(NC(=O)Cc3cccs3)cc2)CC1	i
CC1CCN(C(=O)C(NS(=O)(=O)c2cccc3nsnc23)c2ccccc2)CC1 (stereo unspecified)	2.0

Next entries.
SMILES	H5N1 antiviral
COc1ccc(NC(=O)N(C2CCCCC2)C(C)c2cccnc2)c(OC)c1 (stereo unspecified)	i
CS(=O)(=O)N(CC(=O)N1CCN(Cc2ccccc2)CC1)c1ccc2c(c1)OCCO2	2.3
Cc1[nH]c2ccccc2c(=O)c1CN1CCCCC1	i
O=C1C2CCCN2C(c2ccccc2)N1c1ccc(F)cc1 (stereo unspecified)	0.5
O=C(c1ccc(Cn2c(=O)[nH]c3ccccc3c2=O)cc1)N1CCN(c2ccccn2)CC1	1.0
O=C(C1CCCCC1)N1CCCc2ccccc21	1.6
COc1cccc(N2C(=O)N(c3ccccc3Cl)C3CS(=O)(=O)CC32)c1 (stereo unspecified)	0.3
NC(=O)NCCC1=CCCCC1	i
CCOC(=O)C1[C@H]2C(=O)N(C(C)c3ccc(OC)cc3)C[C@]23C=C[C@H]1O3 (stereo partly specified)	i
Cn1nc(CC(=O)NCc2ccc(C(F)(F)F)cc2)c2ccccc2c1=O	0.5
CCOC(=O)N1CCN(C(=O)C2CCCN(S(=O)(=O)c3ccc(C)cc3)C2)CC1 (stereo unspecified)	2.9
Cc1ccc(NC(=O)N2C(=O)C3(OCCO3)c3ccccc32)cc1	i
CCC(C)c1ccc(NC(=O)c2cccnc2)cc1 (stereo unspecified)	i

Exported as labelled records: two of the compounds above
O=C(c1ccc(Cn2c(=O)[nH]c3ccccc3c2=O)cc1)N1CCN(c2ccccn2)CC1
- H5N1 antiviral = 1.0
O=C(C1CCCCC1)N1CCCc2ccccc21
- H5N1 antiviral = 1.6
